# VDR inhibitor: vitamin D3 receptor (human) inhibition. P11473. VDR-SRC2-3 peptide fluorescence polarization, 2 h. Potency, µM, for inactives: max response, negative = inhibition, most hits filed as inhibitors. 400,000 tested, 0.93% active; active = well fitted inhibition curve with a large enough effect; inconclusive = small, poorly fitted or top-dose-only effect, or another doubt; inactive = no such curve, though single readings can be large or run the other way; also: series mostly up to about 120 µM
# Target sequence (P11473 whole entry, looked up): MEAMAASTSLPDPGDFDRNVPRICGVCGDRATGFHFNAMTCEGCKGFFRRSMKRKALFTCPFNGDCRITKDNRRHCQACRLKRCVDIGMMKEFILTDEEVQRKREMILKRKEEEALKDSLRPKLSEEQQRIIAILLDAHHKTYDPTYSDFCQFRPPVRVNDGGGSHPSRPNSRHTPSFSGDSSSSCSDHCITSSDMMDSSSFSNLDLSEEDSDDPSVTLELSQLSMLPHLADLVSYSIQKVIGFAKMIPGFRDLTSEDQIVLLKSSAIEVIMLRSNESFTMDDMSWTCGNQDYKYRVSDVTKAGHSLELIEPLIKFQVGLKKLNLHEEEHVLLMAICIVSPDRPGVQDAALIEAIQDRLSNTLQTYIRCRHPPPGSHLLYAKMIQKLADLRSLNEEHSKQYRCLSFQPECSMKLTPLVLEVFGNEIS
#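 The screen uses fluorescence polarization to detect compounds that interfere with recruitment of the SRC2-3 coactivator peptide to VDR; plates are read after 2 h at room temperature.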
# The depositor's hits bear a star; ? = inconclusive; & = joins results of further samples; [ ] = dose if it differs, or a comment. % is scaled to controls: 0 for no effect and ±100 for the full control effect; potency is read from the fitted curve at half-maximal effect.
VDR inhibitor	SMILES
-3%	COc1cc(C(C)=O)ccc1OCC(=O)Nc1ccc(C)c(S(=O)(=O)N2CCCCCC2)c1
6%	Cc1ccc(-n2nc(C(=O)O)cc2-c2ccccc2Cl)cc1
-1%	Cc1ccc(CNC(=O)/C=C/c2cccs2)cc1
-8%	Nn1c(SCc2nc3ccccc3[nH]2)nnc1-c1ccccc1
2%	O=C(NCc1ccc2c(c1)OCO2)C1CCN(S(=O)(=O)N2CCCCC2)CC1
3%	COc1ccc(NC(=O)CN(C)CC(=O)c2[nH]c(C)c(C(C)=O)c2C)cc1
2%	Cc1ccc(NS(=O)(=O)c2c(C)noc2C)cc1
-6%	COc1cccc2c(=O)c3c([nH]c12)OC(C)(C)C3
14%	CCOc1ccc(-c2cc(NC(=O)c3cccc(Cl)c3)c(C(=O)OC)s2)cc1
-2%	Cc1cc(=O)oc2cc(OCC(=O)NC3CC(C)(C)NC(C)(C)C3)ccc12
-10%	Cc1ccc(O)c(N=Cc2cc(Cc3ccccc3)cc([N+](=O)[O-])c2O)c1
0%	COc1ccc(C(=O)N2CCC3(CCCN(C(c4ccccc4)c4ccccc4)C3)CC2)cc1
-6%	C=CCc1cccc(/C=N/NC(=O)C(C)Nc2ccc(C)cc2)c1O (centres undefined)
-22%	COc1ccc(N2CCN(C(=O)COC(=O)COc3cc(C)cc(C)c3)CC2)cc1
20%	O=C(NCCCN1CCOCC1)C(=O)N/N=C/c1ccc(F)cc1
-7%	CC(C)N(C(=O)Cn1cc(S(=O)(=O)CC(=O)NCc2ccccc2)c2ccccc21)C(C)C
-10%	COc1ccc(NC(=O)CSc2ccccc2)cc1S(=O)(=O)N1CCCCC1
-10%	CCNc1nc(N)nc(-c2cc(Cl)ccc2OC)n1
-10%	O=C(c1ccco1)N1CCN(C/C=C/c2ccccc2)CC1
-1%	O=C(CCC1CCCN(C(=O)c2ccoc2)C1)NCc1ccc(F)c(F)c1 (centres undefined)
7%	COc1cccc(-n2nnc3c(=O)n(Cc4cccc(C)c4)cnc32)c1
-8%	CC1(C)N=C(c2cccs2)C(C)(C)N1O
-3%	Cc1cccc(NS(=O)(=O)c2ccc(C)c(C(=O)NCc3ccncc3)c2)c1
-8%	Cc1ccc(S(=O)(=O)N(CC(=O)N2CCOCC2)c2ccccc2F)cc1
3%	CCOc1cc(C)cc2oc(=O)cc(-c3ccccc3)c12
?	O=C(c1ccc(-n2c(SCc3cccc(F)c3)nc3ccccc3c2=O)cc1)N1CCOCC1
-12%	COc1cc(OC)cc(C(=O)NC(C(=O)Nc2ccc3nc(C)sc3c2)C(C)C)c1 (centres undefined)
15%	O=C1Nc2cc(Cl)ccc2C1(N1CCNCC1)C(F)(F)F (centres undefined)
-3%	Cn1nnnc1SCCNCc1cccnc1
?	c1ccc(C2NCCc3ccccc32)cc1 (centres undefined)
-19%	O=C(COC(=O)/C=C/c1ccccc1[N+](=O)[O-])NCc1ccco1
-1%	O=C(CSc1n[nH]c(-c2cccs2)n1)NCc1cccs1
?	Cc1cc(C)n2nc(SCc3cccc(S(=O)(=O)N(C)C)c3)nc2n1
-3%	O=C1CCC(C(=O)OCC(=O)N2N=C3/C(=C/c4ccccc4)CCCC3C2c2ccccc2)N1 (centres undefined)
-5%	COc1ccc(CC(=O)NNC(=O)c2ccc(NC(C)=O)cc2)cc1
-1%	CS(=O)(=O)NC1c2cccc3cccc(c23)C1Sc1nncn1/N=C/c1ccco1 (centres undefined)
-4%	Cc1ccc(NC(=O)CS(=O)CC(=O)NC2CCN(Cc3ccccc3)CC2)c(C)c1 (centres undefined)
57%&-8%[activator]	Cc1cc(C)c2c(c1)NC(C(=O)O)C1CC=CC21 (centres undefined)
5%	O=C1c2ccccc2C(=O)N1CCc1csc(-c2ccccc2)n1
5%	Cc1nn(Cc2c(Cl)cccc2Cl)c(C)c1NC(=O)c1cnn2c(C(F)F)cc(-c3ccccc3)nc12
21%	CSCCC(=O)N1CCCC(CNC(=O)c2ccccc2Cl)C1 (centres undefined)
17%	CC(=O)NCCNC(=O)c1ccc(CSc2ccc(Cl)cc2)cc1
-20%	Cn1nc(C(F)(F)F)c(-c2cccc(C(F)(F)F)c2)c1NC(=O)CSCC(=O)O
6%	CC(=C\c1ccco1)/C=C1/SC(=S)N(CC(=O)O)C1=O
-7%	Cc1cc(C(=O)CN2C(=O)NC(C)(c3cc(F)ccc3F)C2=O)c(C)n1C1CC1 (centres undefined)
8%	Cc1ccsc1/C=N/NC(=O)c1nnn(-c2nonc2N)c1CN(C)c1ccccc1
10%	Cc1cc(C)cc(NC(=O)CN2CCC(C(=O)c3ccccc3)CC2)c1
12%	CC(C)(C)c1ccc(/C=N/NC(=O)CN2CCS(=O)(=O)CC2)cc1
-15%	CNC(=S)NNC(=O)CCn1nc(C)c(Br)c1C
-6%	CCOC(=O)c1ccc(NC(=O)c2cccc(S(=O)(=O)N3CCN(C(C)=O)CC3)c2)cc1
-25%	Cc1cccc(CSc2nnc(-c3cnccn3)n2C)c1
12%	COc1ccc(CCNC(=O)C(=O)NCC2OCCN2S(=O)(=O)c2ccc(C)cc2)cc1 (centres undefined)
8%	O=C(COC(=O)c1ccc2ncsc2c1)Nc1cccc(Cl)c1
45µM*	Cc1cccc(N2C(S)=C(C#N)C(=O)NC23CCCCC3)c1
4%	COc1cc(/C=C2\NC(=S)N(C)C2=O)ccc1O
-10%	O=C(NCc1ccco1)c1ccc2c(c1)N(Cc1ccc(Cl)cc1)CCS2
-15%	CSCCC(NS(=O)(=O)c1ccccc1F)C(=O)NCC(C)(C)N1CCOCC1 (centres undefined)
-9%	CNC(=O)c1c(NC(=O)CCS(=O)(=O)c2ccccc2)sc(C)c1C
12%	COc1ccc2oc(-c3ccccc3)c(C(N)=O)c2c1
-12%	N=c1oc2c3c4c(cc2cc1C(=O)Nc1ccccc1)CCCN4CCC3

# Entries listed so far shown as hits in VDR inhibitor:
VDR inhibitor	SMILES
45µM*	Cc1cccc(N2C(S)=C(C#N)C(=O)NC23CCCCC3)c1

# Next part
VDR inhibitor	SMILES
-27%	CC1(C)Cc2c(c(-c3ccccc3Cl)[nH]c(=O)c2C#N)CO1
9%	Cc1cc(C)n(-c2nc3ccccc3nc2Nc2cccc(C(F)(F)F)c2)n1
2%	Cc1cc(F)ccc1NS(=O)(=O)c1c(C(=O)N2CCOCC2)c(C)n(C)c1C
-12%	COc1ccc(CCN2C(=O)C(Oc3ccccc3)C2c2ccc3c(c2)OCO3)cc1 (centres undefined)
-16%	Nc1nc2nccc(-c3ccccn3)n2n1
0%	O=C(Nc1ncccc1O)c1ccc(OCC2CCCO2)cc1 (centres undefined)
13%	O=C(CCS(=O)(=O)c1cccc2nsnc12)NC1CCCCC1
5%	O=C1CN(C(=O)CNC(=O)c2ccc(Cl)cc2Cl)CCN1
-3%	Cc1cccc2cc(C(c3nnnn3Cc3ccccc3)N3CCCc4ccccc43)c(=O)[nH]c12 (centres undefined)
4%	O=c1[nH]c(SCc2ccccc2)nc2c1CCCC2
4%	Cc1occc1C(=O)Nc1cc(C(C)(C)C)on1
-5%	O=C(CCC1N=C2c3ccccc3N=C(SCc3ccc(F)cc3)N2C1=O)NCCc1ccccc1 (centres undefined)

# Two records picked at random from those above, as already listed:
VDR inhibitor	SMILES
-12%	COc1cc(OC)cc(C(=O)NC(C(=O)Nc2ccc3nc(C)sc3c2)C(C)C)c1 (centres undefined)
-3%	Cc1cccc2cc(C(c3nnnn3Cc3ccccc3)N3CCCc4ccccc43)c(=O)[nH]c12 (centres undefined)

# Some of these compounds in order of SMILES length, falling.
VDR inhibitor	SMILES
2%	Cc1cc(F)ccc1NS(=O)(=O)c1c(C(=O)N2CCOCC2)c(C)n(C)c1C
5%	O=C1CN(C(=O)CNC(=O)c2ccc(Cl)cc2Cl)CCN1
4%	Cc1occc1C(=O)Nc1cc(C(C)(C)C)on1

# Next section.
VDR inhibitor	SMILES
-1%	NS(=O)(=O)c1ccc(CNC(=S)Nc2cc(S(=O)(=O)N3CCOCC3)ccc2Cl)cc1
4%	CCCOc1ccc(-c2nnn(CC(=O)OCC)n2)cc1
-14%	COc1nc(-c2ccccc2)cc(C(F)(F)F)n1
5%	CCOC(=O)n1c(=O)oc2ccccc21
-18%	CCOC(=O)NC(=O)COC(=O)CNC(=O)c1cccc(OC)c1
-2%	c1ccc2nc(-c3ccc4c(c3)OCO4)ccc2c1
-7%	CCCCC(C(=O)NC(C)c1ccccc1)C(=O)NC(C)c1ccccc1 (centres undefined)
-14%	COc1ccc(-n2c(C)cc(C(=O)NC3CCCCC3)c2C)cc1
1%	O=C(Nc1ccc(S(=O)(=O)N2CCc3ccccc32)cc1)c1ccc2c(c1)OCO2
-7%	O=C(Nc1ccc(CN2CCOCC2)cc1)c1ccc(Br)o1
-18%	Cn1c(-c2ccc3c(c2)OCO3)cnc1NCc1ccc(Cl)cc1
-12%	Cc1c(Cl)cccc1-n1c(SCC(=O)N2CCC(C(=O)O)CC2)nnc1-c1ccncc1
-3%	Cc1ccc(N2CC(C)Cn3c2nc2c3c(=O)n(CC(=O)O)c(=O)n2C)cc1 (centres undefined)
-14%	CCCC(=O)Nc1ccc(S(=O)(=O)Nc2cc(C)nc(C)n2)cc1
-8%	CCCCn1c(N)c(N(CCOC)C(=O)CCCn2c(=O)oc3ccccc32)c(=O)[nH]c1=O
-8%	CCOC(=O)c1[nH]c(C)c(C(=O)NC2CCCC2)c1C
-13%	Cc1ccc(NC(=O)c2scc3c2CCCC3)cc1
-21%	CCOc1ccc(CSCCNC(=S)Nc2ccccc2)cc1
7%	Cc1ccc(S(=O)(=O)N2CCC(C(=O)OC(C)C(=O)N(C)c3ccccc3)CC2)cc1C (centres undefined)
13%	CCC(C)c1c(O)nc(SCC(=O)N2CCOCC2)[nH]c1=O (centres undefined)
-6%	Cc1ccccc1-c1nc2ccccc2o1
-1%	CNC(=O)COc1ccc(NC(=O)CCn2nc(-c3ccc(C)cc3)c3ccccc3c2=O)cc1
-10%	Cc1ccc2c(c1)N(CC(=O)N(Cc1ccc3c(c1)OCO3)CC1CCCO1)C(=O)C(C)O2 (centres undefined)
-9%	CCN(c1ccccc1)S(=O)(=O)c1ccc2c(c1)C(C)(C)C(=O)N2C

# Given with tabs: part of the list above
SMILES	VDR inhibitor
CNC(=O)COc1ccc(NC(=O)CCn2nc(-c3ccc(C)cc3)c3ccccc3c2=O)cc1	-1%
CCCCn1c(N)c(N(CCOC)C(=O)CCCn2c(=O)oc3ccccc32)c(=O)[nH]c1=O	-8%
Cc1ccc(N2CC(C)Cn3c2nc2c3c(=O)n(CC(=O)O)c(=O)n2C)cc1 (centres undefined)	-3%
CCOc1ccc(CSCCNC(=S)Nc2ccccc2)cc1	-21%
CCN(c1ccccc1)S(=O)(=O)c1ccc2c(c1)C(C)(C)C(=O)N2C	-9%
CCCC(=O)Nc1ccc(S(=O)(=O)Nc2cc(C)nc(C)n2)cc1	-14%

# The results go on:
VDR inhibitor	SMILES
-4%	NC1(C(=O)O)CCCCC1c1ccccc1 (centres undefined)
13%	CCOc1ccc(N2C(=O)CC(N3CCc4ccccc43)C2=O)cc1 (centres undefined)
-7%&-21%	CCCCN(CC)CCNC(=O)c1cc2c(=O)[nH]c3ccccc3c2n1C
5%&5%	COc1cc(NC(=O)CCCSc2nc(-c3ccco3)cc(C(F)(F)F)n2)cc(OC)c1OC
-6%	CCn1c(=O)n(CC)c2cc(NC(=O)C(C)c3ccccc3)c(Br)cc21 (centres undefined)
-4%	Cc1ccccc1C(=O)N[C@H](C(=O)Nc1ccc(Cl)c(Cl)c1)C(C)C
6%	CCCC(=O)c1cc2cc(Cl)ccc2oc1=O
-4%	COc1ccc(CNC(=O)CSc2nc3nc(C)cc(C)n3n2)cc1
8%	COc1ccc(S(=O)(=O)NCC2CCCO2)cc1C(=O)O (centres undefined)
-22%	CCc1ccc(/C(C)=N/NC(=O)c2ccc(-n3cnnn3)cc2)cc1
-5%	Cn1c(=O)c2nc(Cl)c(-c3ccccc3)nc2n(C)c1=O
2%	CC1CC(C)CN(S(=O)(=O)c2ccc(F)c(C(=O)Nc3ccc(Cl)cc3F)c2)C1 (centres undefined)
18%	Cc1ccc(-c2c[n+](CC(=O)Nc3ccc(C)cc3C)c3n2CCC3)cc1
2%	Cc1ccc(S(=O)(=O)N2CCN(C(=O)COC(=O)CNC(=O)c3ccc(C(C)(C)C)cc3)CC2)c(C)c1
-10%	CC1Cc2nc(SCC(=O)NCC3CCCO3)n(Cc3ccccc3)c(=O)c2S1 (centres undefined)
-4%	N#CCCN(C(=O)COC(=O)c1ccc(S(=O)(=O)Nc2ccccc2)cc1)c1ccccc1
-1%	O=C1Nc2c(Br)cc(Br)cc2C1(O)N1CCOCC1 (centres undefined)
-3%	COc1cc(CO)c(Br)cc1OCC(=O)Nc1ccccc1C
-4%	CC(=O)N1N=C(c2cccc([N+](=O)[O-])c2)OC1(C)CC(=O)Nc1ccccc1 (centres undefined)
-9%	CCC(C)NC(=O)CSc1ccc(S(=O)(=O)N(C)C2CCCCC2)cn1 (centres undefined)
10%	COc1ccc(C(=O)Nc2cccc(-c3ccc(N4CCOCC4)nn3)c2)cc1OC
3%	O=C(OC(C(=O)NC1CCCCC1)c1ccccc1)c1ccco1 (centres undefined)
7%	Cc1c(C(=O)Nc2ccc3c(c2)OCO3)sc2ncn(CC(=O)N3CC(C)CC(C)C3)c(=O)c12 (centres undefined)
5%	CCOC(=O)c1sc(N2C(=O)c3oc4ccc(C)cc4c(=O)c3C2c2ccccc2F)nc1C (centres undefined)
9%&-19%&2%	CCOc1cc(N)c(Cl)cc1C(=O)NCC1CN(Cc2ccc(F)cc2)CCO1 (centres undefined)

# Bioassay records as filed in PubChem.

# Some of the compounds tested, so the mix of outcomes need not match the whole.
